# From PubChem
# GIV-Gai inh: GIV-Galpha-i interaction inhibition; P08753; Galpha-i3/FITC-GIV peptide fluorescence polarization, 90 min; active compounds read low; scaled: aluminum fluoride 0%, vehicle 100%; percent of control (FP), % (test concentration not listed); hit rate 0.42% among 210,000;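 active = replicate mean at 85% of control or lower, very high polarization wells dropped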;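 also: lower values mean more displacement of the GIV peptide from Galpha-i3; wells of about 15 µL received 100 nL stock; the first replicate is given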
# Target sequence (P08753 whole entry, looked up): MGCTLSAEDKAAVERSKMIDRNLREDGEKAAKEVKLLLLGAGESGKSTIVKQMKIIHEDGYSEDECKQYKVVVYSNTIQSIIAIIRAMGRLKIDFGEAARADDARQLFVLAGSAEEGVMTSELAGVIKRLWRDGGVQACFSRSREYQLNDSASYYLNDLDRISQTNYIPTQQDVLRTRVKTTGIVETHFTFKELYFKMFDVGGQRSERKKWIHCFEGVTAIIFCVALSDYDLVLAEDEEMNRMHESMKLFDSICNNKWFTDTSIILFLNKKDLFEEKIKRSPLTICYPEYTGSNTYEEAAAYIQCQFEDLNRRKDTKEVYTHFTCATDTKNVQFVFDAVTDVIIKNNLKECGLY
# Active calls of the source: *. The list is partial; rates above refer to the full screens.
# The opening four compounds as a preview:
SMILES,GIV-Gai inh
CCC1CCCCN1C(=O)Cn1c(=O)c2c(C(=O)OC)cc(C)nc2n(-c2ccccc2)c1=O (configuration not stated),104
CC1CCN(S(=O)(=O)c2cc(-c3nnc(C4CCCC4)o3)co2)CC1,103
O=C(NCc1ccco1)c1c[nH]c2ccc(S(=O)(=O)N3CCN(c4ccc(F)cc4)CC3)cc2c1=O,113
CCCc1cc(Sc2ccc(NC(=O)Nc3ccc4c(c3)OCCO4)cc2)n2ncnc2n1,100

# The listing, previewed entries included:
SMILES,GIV-Gai inh
CCC1CCCCN1C(=O)Cn1c(=O)c2c(C(=O)OC)cc(C)nc2n(-c2ccccc2)c1=O (configuration not stated),104
CC1CCN(S(=O)(=O)c2cc(-c3nnc(C4CCCC4)o3)co2)CC1,103
O=C(NCc1ccco1)c1c[nH]c2ccc(S(=O)(=O)N3CCN(c4ccc(F)cc4)CC3)cc2c1=O,113
CCCc1cc(Sc2ccc(NC(=O)Nc3ccc4c(c3)OCCO4)cc2)n2ncnc2n1,100
Cc1cc(C)nc(Nc2ncc(O)n2-c2cccc(Cl)c2)n1,114
Cc1cc(C)c2c(n1)sc1c(=O)n(-c3ccc(C(=O)Nc4ccc(C)c(F)c4)cc3)cnc12,98
CC(=O)Nc1ccc2nc(N3CCC(C(=O)N4CCCC4)CC3)cc(C)c2c1,99
CC(C)c1cc(C(=O)N2CCCC2c2cc(C(C)C)no2)on1 (configuration not stated),97
O=C(NNc1cccc(Cl)c1)C(O)(c1ccc(Cl)cc1)c1ccc(Cl)cc1,108
Cn1cc(CN2CCC(C(=O)N3CCCC3)CC2)c2cc(Cl)ccc21,103
COc1ccc(-n2c(=S)[nH]c3cc(C(=O)NCc4ccc5c(c4)OCO5)ccc3c2=O)cc1OC,122
COc1ccccc1NC(=O)C1=C(C)NC(SCC(=O)Nc2ccc(Br)cc2)=C(C#N)C1c1ccccc1 (configuration not stated),105
CCc1nnc(-c2csc(S(=O)(=O)N3CCC4(CC3)OCCO4)c2)o1,110
c1ccc(-c2nc3ccc(Cc4ccc5nc(-c6ccccc6)c(-c6ccccc6)nc5c4)cc3nc2-c2ccccc2)cc1,116
CS(=O)(=O)N1CC(C(=O)NC2CCCC2)Oc2ccccc21 (configuration not stated),97
CCn1c(=O)n(CC)c2cc(NC3=C(C(=O)N4CCOCC4)S(=O)(=O)c4ccccc43)ccc21,107
O=C1c2ccccc2NC(c2ccc(Cl)cc2Cl)N1c1ccc(I)cc1 (configuration not stated),107
Cc1cc(C2CCCN2Cc2cn[nH]c2-c2cccs2)no1 (configuration not stated),107
Cc1c(C(c2ccccc2Cl)c2c(C)n(C)n(-c3ccccc3)c2=O)c(=O)n(-c2ccccc2)n1C,115
COC(=O)c1ccc(NC(=O)CSc2nc3ccc(NC(=O)CSc4nnc(C)s4)cc3s2)cc1,115
COc1ccc(C2CC(C(F)(F)F)n3nc(C(=O)N4CCN(c5cccc(OC)c5)CC4)cc3N2)cc1 (configuration not stated),107
O=C(NC1CCCC1)c1ccc(-c2cc(N3CCOCC3)ncn2)cc1,99
COc1ccc(-n2cc(-c3ccccc3)c3c(NCc4ccc5c(c4)OCO5)ncnc32)cc1,115
Cc1ccc(-c2cnc(N3CCCC(C(=O)NC4CCCC4)C3)nc2)cc1 (configuration not stated),105
Cc1ccc(C(C)NC(=O)c2nnc(-c3ccc(S(=O)(=O)N(C)C)cc3)o2)c(C)c1 (configuration not stated),107
Cc1ccc(Sc2cc(Br)c3noc4c3c2C(=O)c2ccccc2-4)cc1,109
COCCNS(=O)(=O)c1cc(-c2cnn3c(C)cc(C)nc23)ccc1OC,107
N#CC1=C(N)C(C#N)(C#N)C(c2ccc(Cl)cc2)C2CN(Cc3ccccc3)CC=C12 (configuration not stated),-58*
Clc1ccc(N=c2scc(-c3ccccc3)n2-c2ccccc2)nc1,117
COc1ccccc1-n1ncc2c(=O)[nH]c(SCC(=O)NCc3ccccc3Cl)nc21,98
CC(C)NC(=O)C1CCN(c2ncc(-c3ccccc3)cn2)CC1,107
CC(C)c1cc(C2CCCN2Cc2ccc(O)cc2)on1 (configuration not stated),104
Cn1nc(-c2nc(-c3ccccc3)no2)c2c1CCN(S(=O)(=O)c1ccc3c(c1)CCC3)C2,101
Cn1c2c(c(=O)[nH]c1=O)C(c1cccc(Br)c1)C1=C(N2)c2ccccc2C1=O (configuration not stated),115
O=C(NC1CCCCC1)c1nc(CCS(=O)(=O)c2ccccc2)no1,106
COc1ccc(NS(=O)(=O)c2ccc3c(c2)C(C)(C)CN3CC(=O)N2CCCC2)cc1OC,105
Cc1c(C(=O)NCCCN2CCOCC2)sc2ncnc(N3CCN(c4ccccc4)CC3)c12,99
C=CCOC(=O)C1=C(C)NC(SCC(=O)Nc2ccc(C)cc2C)=C(C#N)C1c1ccco1 (configuration not stated),104
COc1ccc(-n2ccc(=O)c(-c3nc(-c4cc(OC)cc(OC)c4)no3)n2)cc1,100
CC1(C)CC(=O)C2=C(C1)c1c(ccc3ccccc13)NC2c1ccc(OCc2ccccc2)cc1 (configuration not stated),114
CCC(C)(C)C(=O)Nc1ccc(-n2c(C)nc3ccccc3c2=O)cc1,106
COc1ccc(NS(=O)(=O)c2cnc(N)nc2)cc1OC,98
O=C(Nc1cc(Cl)ccc1Oc1ccc(Br)c2ccccc12)c1cc(Cl)cc(I)c1O,109
Cc1cccc(OCc2nc(-c3ccc(NC(=O)c4cccs4)cc3)no2)c1,105
Cc1ccc(C)c(N2C(=O)C3C(C2=O)N2CCCN2C3c2ccccc2)c1 (configuration not stated),112
C=C(C)CSc1nc2nc3c(cc2c(=O)n1-c1ccccc1)COC(C)(C)C3,101
CSc1ccc([C@H]2[C@H](C(=O)C(C)(C)C)N3C=Cc4ccccc4[C@H]3C2(C#N)C#N)cc1,104
COc1ccccc1NC(=O)C1=C(C)NC(SCC(=O)Nc2ccc(C)cc2C)=C(C#N)C1c1ccccc1 (configuration not stated),102
O=C(c1cccc(Br)c1)N1N=C(C(F)(F)F)CC1(O)c1ccc(Cl)cc1 (configuration not stated),113
Cc1cc(C2CCCN2C(=O)C2CCC2)no1 (configuration not stated),101
COc1cc(OC)c(NC(=O)N2CCCC2c2cc(C(C)C)no2)cc1Cl (configuration not stated),100
Cc1cc(NC(=O)CSc2nc(NCc3ccc(Cl)cc3)c3ccccc3n2)no1,111
NS(=O)(=O)c1ccc(Cl)c(-c2nnc(-c3ccccc3)o2)c1,103
COc1ccc(/C=N/c2oc(-c3ccccc3)c(-c3ccccc3)c2C#N)c(OC)c1,106
CC(C)(C)CC(=O)NC1CC(=O)N(c2ccc(F)cc2)C1 (configuration not stated),98
CCC(=O)Nc1cccc(-c2noc(C3CCCN(C(=O)c4cccc(OC)c4)C3)n2)c1 (configuration not stated),104
CCOCCn1cnc2sc(C(=O)Nc3nc(C)c(C(=O)OCC)s3)c(C)c2c1=O,103
Cc1cccc(N2C(=O)C3C4c5ccccc5C(C)(c5ccccc54)C3C2=O)c1 (configuration not stated),104
CCOc1ccc(-n2c(/C=C/c3cc(OC)c(OC)cc3OC)nc3cc(OC)c(OC)cc3c2=O)cc1,133
CC1Cc2cccc3c(=O)c(C(=O)Nc4ccc(S(N)(=O)=O)cc4)cn1c23 (configuration not stated),104
# Remaining list, next part
SMILES,GIV-Gai inh
Cc1nc2sccn2c(=O)c1NC(=O)COc1ccc(Cl)cc1,106
COc1ccc(-c2[nH]nc3c2C2(C(=O)Nc4ccccc42)C(C#N)=C(N)O3)cc1 (configuration not stated),112
CCCCCCCCCCNS(=O)(=O)c1ccc2c(c1)C(=O)c1cc(S(=O)(=O)NCCCCCCCCCC)ccc1-2,106
Oc1ccccc1-c1nc(NCCc2ccccc2)c2ccccc2n1,100
CCOc1ccccc1-n1c(SCc2ccccc2F)nc2[nH]ncc2c1=O,103
Cc1c(C(=O)Nc2ccc3c(c2)OCCO3)sc2ncnc(N3CCN(c4ccccc4)CC3)c12,98
Cc1cccc(C(=O)N2CCCN(Cc3noc(-c4ccccc4)n3)CC2)c1C,104
O=C(NCc1ccc(F)cc1Cl)C1CCCN(c2ncnc3c2oc2ccccc23)C1 (configuration not stated),98
CN(C)S(=O)(=O)c1ccc2c(c1)cc(C(=O)N1CCCCC1)n2Cc1ccncc1,103
CN(CC1(C)CCOCC1)S(=O)(=O)c1cc(F)ccc1F,105
COc1cc(C2NC(=O)NC(C)=C2C(=O)Nc2cccc(Cl)c2)cc(OC)c1OC (configuration not stated),99
COc1ccc(NC(=O)c2sc3nc4c(c(-c5ccco5)c3c2N)CCC4)cc1,107
COc1cc(OC)c(NC(=O)N2CCCC2c2cc(C(C)C)on2)cc1Cl (configuration not stated),107
O=C(NCCc1c[nH]c2ccccc12)/C(=C/c1cccs1)NC(=O)c1ccccc1,103
O=C(Nc1ccc2nn(-c3ccccc3)nc2c1)c1oc(=O)c2ccccc2c1-c1ccccc1,102
COc1ccc(NC(=O)C2OC3OC(C)(C)OC3C3OC(C)(C)OC23)cc1 (configuration not stated),102
Cc1ccc(CNC(=O)c2ccc(-c3nc(CCN(C)C(=O)Nc4ccccc4)no3)cc2)cc1,99
C=CCc1cccc2cc(C(=O)Nc3sc(C(=O)OCC)c(C)c3C(=O)OCC)c(=O)oc12,119
COC(=O)c1c(C)oc2ccc(N(C(=O)c3cccc([N+](=O)[O-])c3)S(=O)(=O)c3ccccc3)cc12,112
Cc1nc(CCNC(=O)[C@H]2CCCN2S(=O)(=O)c2cc(C)c(C)cc2C)cs1,100
CCOC(=O)C(NC(=O)c1ccccc1)(Nc1sc2c(c1C#N)CCC(C)C2)C(F)(F)F (configuration not stated),108
COc1ccc(C2CC(=O)Nc3c2cnn3-c2nc3ccccc3s2)cc1Br (configuration not stated),100
CCCNC(=O)c1ccc(-c2nc(CCN(C)C(=O)c3ccc(Cl)cc3)no2)cc1,101
COc1cccc(C2C(C#N)=C(N)Oc3n[nH]c(-c4ccc(Br)cc4)c32)c1OC (configuration not stated),100
CC(C)(C)C(=O)N1CC(C(=O)NC2CCCC2)C2(CCCC2)C1 (configuration not stated),97
Cc1ccc(-c2noc3ncnc(NC4CCCC4)c23)cc1,104
O=C1c2ccccc2-c2onc3c(Cl)cc(Sc4ccccc4)c1c23,102
CCCN1CCN(C(=O)c2sc3ncn(C)c(=O)c3c2C)CC1,100
O=C(CN1C(=O)CN(C(=O)NCc2ccccc2)c2ccccc21)N1CCCC1,97
O=C1CC(c2ccccc2Br)c2cnn(-c3nc4ccccc4s3)c2N1 (configuration not stated),100
Cc1ccc(NC(=O)c2sc3ncn(CC(=O)N4CCN(c5ccccn5)CC4)c(=O)c3c2C)cc1F,104
CCc1ccc(C2(c3ccc(CC)cc3)SC3(SC(C(C)=O)=NN3c3ccc(Cl)cc3)c3ccccc32)cc1 (configuration not stated),99
Ic1ccc(NC2=NC3(CCCCC3)Cc3ccccc32)cc1,101
CC(=O)Nc1ccc(S(=O)(=O)N2CCn3cccc3C2c2ccccc2)cc1 (configuration not stated),105
Cc1ccc2c(c1)/C(=C\c1ccc(Br)cc1)c1cc3ccccc3nc1-2,104
CCCCNC(=O)CSc1nc(NCCc2ccccc2)c2ccccc2n1,109
CC1(C)CC(=O)C2=C(C1)Nc1ccc3ccccc3c1C2c1cccc([N+](=O)[O-])c1 (configuration not stated),105
CC1(C)c2ssc(=S)c2-c2ccccc2N1C(=O)c1cccs1,105
COc1cccc(C(=O)NCc2ccc3c(c2)N(C(=O)c2ccc(Cl)cc2)CC3)c1,106
CCc1nc(Oc2cccnc2)c2oc3ccccc3c2n1,107
CCN1CCCn2nc(C3CCN(C(=O)C4(c5ccccc5)CC4)CC3)cc2C1=O,99
O=C(Nc1ccc(F)c(Cl)c1)N1CCN(Cc2nc3cccnc3n2-c2ccccc2)CC1,104
O=C(Nc1ccc(S(=O)(=O)N2CCCCC2c2cccnc2)cc1)c1ccc(Cl)cc1Cl (configuration not stated),104
Cc1ccc(CNC2=NCCNC23CCN(S(=O)(=O)c2cc(C)ccc2C)CC3)cc1,102
CCC12CN3CC(CC)(CN(C1)C3c1ccccc1Cl)C2=O (configuration not stated),105
COc1cccc(CNC(=O)c2cnn3c(C)c(Cc4ccccc4Br)c(C)nc23)c1,101
COc1ccc2ccccc2c1C1N(c2ccc(C)cc2)CCN1c1ccc(C)cc1,98
CCOC(=O)CS(=O)(=O)c1cc2c(cc1NC(=O)CC)n(C)c(=O)c(=O)n2C,101
Cc1nnc(SCC(=O)Nc2ccc(OC(F)(F)F)cc2)s1,106
CC1(C)CC(=O)C2=C(C1)Nc1ccccc1N(CC(=O)NC1CCCC1)C2c1ccc(F)cc1 (configuration not stated),103
CC1(C)CC(=O)C2=C(C1)Nc1ccccc1N(CC(=O)NCc1ccccc1)C2c1ccc(F)cc1 (configuration not stated),101
Cc1ccc(NC(=O)CSc2nnc(C(C)N3C(=O)COc4ccccc43)n2C)cc1Cl (configuration not stated),99

# Five compounds picked at random from the list so far, as already listed:
SMILES,GIV-Gai inh
Cc1ccc(NC(=O)CSc2nnc(C(C)N3C(=O)COc4ccccc43)n2C)cc1Cl (configuration not stated),99
COc1cccc(CNC(=O)c2cnn3c(C)c(Cc4ccccc4Br)c(C)nc23)c1,101
O=C(Nc1ccc(F)c(Cl)c1)N1CCN(Cc2nc3cccnc3n2-c2ccccc2)CC1,104
CCN1CCCn2nc(C3CCN(C(=O)C4(c5ccccc5)CC4)CC3)cc2C1=O,99
COc1ccc2ccccc2c1C1N(c2ccc(C)cc2)CCN1c1ccc(C)cc1,98
